Screening results as filed in PubChem BioAssay.
H5N1 antiviral – MDCK cell protection from H5N1 avian flu | 96,000 compounds, 0.07% hits | inhibition, % at 50 µM | cytopathic effect, luminescence, 72 h; stronger effect = higher value; no value below 0 was filed and about half of the inactive calls have no number; reference of the scale not given here | AID 740; in the data active = inhibition above about 25%
Starred values were filed as active, the others as inactive; i = inactive.

A first look (6 entries):
SMILES | H5N1 antiviral
Cc1c(NC(=O)c2c(F)cccc2F)c(=O)n(-c2ccccc2)n1C | i
CCOC(=O)N1CCC(Nc2c(NCCN3CCN(c4cccc(Cl)c4)CC3)c(=O)c2=O)CC1 | 0.2
C=C(C)COc1ccc(-c2n[nH]c(C)c2-c2ccccc2OC)c(O)c1 | i
COc1ccccc1CNC(=O)c1ccc(S(=O)(=O)N2CCCC2)cc1 | 2.3
COc1ccc(C(=O)OCC(=O)c2cc(OC)ccc2OC)c(OC)c1 | i
CC(=O)OCc1c(C(F)(F)F)nn(C)c1Sc1ccccc1 | 1.2

All compounds of this part, repeating the preview:
SMILES | H5N1 antiviral
Cc1c(NC(=O)c2c(F)cccc2F)c(=O)n(-c2ccccc2)n1C | i
CCOC(=O)N1CCC(Nc2c(NCCN3CCN(c4cccc(Cl)c4)CC3)c(=O)c2=O)CC1 | 0.2
C=C(C)COc1ccc(-c2n[nH]c(C)c2-c2ccccc2OC)c(O)c1 | i
COc1ccccc1CNC(=O)c1ccc(S(=O)(=O)N2CCCC2)cc1 | 2.3
COc1ccc(C(=O)OCC(=O)c2cc(OC)ccc2OC)c(OC)c1 | i
CC(=O)OCc1c(C(F)(F)F)nn(C)c1Sc1ccccc1 | 1.2
CCCCCCCC(=O)Nc1ccc(C(=O)N/N=C/c2cccc([N+](=O)[O-])c2)cc1 | i
Cc1ccc(CSC2=Nc3sccc3C3=NC(=O)CN23)cc1 | 4.1
CCC(CC)C(=O)Nc1c2c(nn1-c1ccc(OC)cc1)CS(=O)(=O)C2 | 1.0
CCOc1ccccc1-n1c(SCC(=O)Nc2ccc(CC)cc2)nc2n[nH]c(C)c2c1=N | 1.2
CCc1nc(OCC(=O)c2ccccc2)c(C#N)c2c1COC(C)(C)C2 | 1.8
Cc1cc(NC(c2cccnc2)c2ccc3cccnc3c2O)no1 (configuration not stated) | i
O=C(CCCCCN1C(=O)c2ccccc2C1=O)Nc1ccc2c(c1)OCCO2 | i
Cc1nn(-c2ccccc2)c2sc(C(=O)N3CCCCC3)cc12 | i
Cc1ccc2[nH]c(=O)c(CN(C)C(=O)c3ccccn3)cc2c1 | 1.2
Cc1ccc2nc(-c3ccc(N4C(=O)CC(N5CCCC(C)C5)C4=O)cc3)sc2c1 (configuration not stated) | 0.1
Cc1cccc(N2CCN(CCNC(=O)c3cc4c(s3)CS(=O)(=O)C4)CC2)c1C | i
COc1ccc(S(=O)(=O)Nc2ccc(N3CCOCC3)cc2)cc1Br | i
CN1C(=O)C2(OCC(COc3ccc(Cl)cc3)O2)c2ccccc21 (configuration not stated) | i
O=S(=O)(NCc1ccco1)N1CCCCCC1 | 2.1
O=C(Nc1ccc(S(=O)(=O)N2CCOCC2)cc1)c1ccco1 | i
Cn1cccc1CC(=O)N/N=C\c1c2ccccc2cc2ccccc12 | 1.1
CC(=O)C1=C(O)C(=O)N(c2nccs2)C1c1ccccc1 (configuration not stated) | i
COc1ccc2[nH]c(=O)c3c(c2c1)OC(C)(C)C=C3 | 7.0
Nn1c(SCC(=O)NC2CCCCC2)nnc1-c1ccccc1 | 0.3

An excerpt from above in order of molar mass, descending.
SMILES | H5N1 antiviral
CCc1nc(OCC(=O)c2ccccc2)c(C#N)c2c1COC(C)(C)C2 | 1.8
Cc1ccc(CSC2=Nc3sccc3C3=NC(=O)CN23)cc1 | 4.1
COc1ccc2[nH]c(=O)c3c(c2c1)OC(C)(C)C=C3 | 7.0

Other compounds follow.
SMILES | H5N1 antiviral
Cc1ccc(-c2c3c(=O)n(C)c(=O)n(C)c3cn2Cc2cccnc2)cc1 | 0.7
Cc1cccc(OCC(=O)Nc2ccc(S(=O)(=O)N3CCCC3)cc2)c1 | 1.4
COc1ccc(C/C(O)=C(\C#N)c2nc3ccccc3s2)cc1 | i
Cc1ccc(N(CC(=O)NCCSCc2ccco2)S(=O)(=O)c2ccc(C)cc2)cc1 | i
O=C(Cn1ncc2c1-c1ccccc1OC2)N(Cc1ccco1)C1CCCCC1 | i
CC1=C(C(=O)NCCN2CCOCC2)C2(CCC(C)CC2)OC1=O (configuration not stated) | 0.7
CCc1nnc(NC(=O)c2ccc(N(C)S(=O)(=O)c3ccccc3)cc2)s1 | 0.7
O=C(COC(=O)C1=COCCO1)Nc1ccccc1Oc1ccccc1 | i
C/C(=N\OC(=O)NC1CCCCC1)c1sc(-c2ccccc2)nc1C | 5.3
CCC(CO)N=CC1=C(O)CC(C)(C)CC1=O (configuration not stated) | 0.3
COc1ccc(C2C(C#N)C(C#N)N3CCCN23)cc1 (configuration not stated) | i
OC1CCCCC1Sc1nc2ccccc2s1 (configuration not stated) | 2.0
COc1ccc(S(=O)(=O)NC(CC(=O)N2CCC3(CC2)OCCO3)c2ccco2)cc1 (configuration not stated) | 0.5
COc1ccc(/C=N/Nc2nonc2N)cc1 | 0.8
COc1ccc(C=NCCCN2CCOCC2)cc1 | i
Cc1ccc(Oc2nnc(-c3ccccc3)cc2C#N)cc1 | i
COc1ccc(C2Nc3ccccc3C(=O)N2Cc2ccco2)cc1COc1ccccc1F (configuration not stated) | i
O=C(CCCn1c(=O)[nH]c2cc(Cl)ccc2c1=O)N1CCN(c2ccc([N+](=O)[O-])cc2)CC1 | i
CN(c1ccc(C(=O)Nc2cccnc2)cc1)S(C)(=O)=O | 0.9
Cc1cc(C)n(-c2nc3ccccc3nc2N2CCCC2)n1 | 1.2
O=C(NCCOc1nc(N2CCOCC2)nc(N2CCOCC2)n1)Nc1ccccc1 | 0.2
CCC(C)(C)n1nnnc1C(c1cccc(C#N)c1)N1CCN(c2cccc(C)c2C)CC1 (configuration not stated) | 0.5
COc1ccccc1CNC(=O)CCn1c(=O)[nH]c2ccsc2c1=O | 0.9
Cc1cc(C(F)(F)F)c2sc(N)nc2n1 | i
COc1cc(NC(=O)c2cc(Cl)ccc2Cl)ccc1-c1cc2ccccc2oc1=O | i

The results go on.
SMILES | H5N1 antiviral
COc1ccc(Cc2nnc(SCC(=O)Nc3ncc(C)s3)o2)cc1 | i
COc1ccc(-c2ccc(-c3nnc(-c4ccncc4)o3)cc2)cc1 | i
O=C(Nc1cccnc1)Nc1ccc(F)c(Cl)c1 | i
C=CCOc1nc(-c2ccncc2)nc2ccccc12 | 0.2
C=CCS/C(=N\n1cnc2ccccc2c1=O)N(CC)CC | 1.6
O=S(=O)(Nc1ccc(-n2cccc2)cc1)c1ccc(Cl)cc1Cl | 0.3
COC(=O)C(CC(=O)c1ccc(Br)cc1)n1ccnc1 (configuration not stated) | 3.2
Cn1nnnc1SCC(=O)c1ccco1 | i
COc1ccc(N(C(=O)c2ccc(F)cc2)C2=CC3CCC(C2)N3C)cc1 (configuration not stated) | i
Cc1ccc(-n2nc(C)c3c(-c4cccs4)c(C#N)c(N)nc32)cc1 | i
COc1ccccc1CNC(=O)C1CCCN(S(=O)(=O)c2c(C)[nH]c(=O)[nH]c2=O)C1 (configuration not stated) | 0.4
O=C(CN1C(=O)COc2ccccc21)c1cccc(Cl)c1 | i
O=C(CS(=O)(=O)Cc1ccccc1)N1CCc2ccccc2C1 | i
Cc1ccc(C)c(N2CCN(C(=O)COc3cc(=O)n(C)c4ccccc34)CC2)c1 | i
CC(=O)NC1C(=O)N(CCc2ccccc2)c2ccccc21 (configuration not stated) | 1.7
CC(C)CNS(=O)(=O)c1ccc(C(=O)Nc2ccc3c(c2)OCCO3)cc1 | 0.5
O=C(CSc1nc2ccccc2c(=O)[nH]1)c1ccc(O)c(O)c1 | i
CC1=C(C(=O)Nc2ccccc2)C(c2ccccn2)n2ncnc2N1 (configuration not stated) | 2.7
CCn1c(SCC#N)nc2c(c1=O)C1(CCCC1)Cc1ccccc1-2 | 0.1
Cc1noc(C)c1COC(=O)CCCc1nc2ccccc2s1 | 0.1
COc1cc(-c2nc3ccccn3c2NCC2CCCO2)ccc1O (configuration not stated) | i
c1ccc2c(c1)nc(-c1ccncc1)n1nnnc21 | 0.9
c1ccc(-c2cc(N3CCCCCC3)n[nH]2)cc1 | i
Cc1c2c(nc3c(C)cccc13)OC(C)C2 (configuration not stated) | 0.1
O=C(CNc1ccc(Oc2ccccc2)cc1)N1CCOCC1 | i

Following part
SMILES | H5N1 antiviral
Cc1nc2c(-c3ccc(F)cc3)c(C)nn2c(C)c1CCC(=O)NCCN1CCOCC1 | i
COCCOC(=O)c1c(C)oc2ccc(OCc3cc(C(=O)OC)oc3C)cc12 | 0.2
CN1CCN(C(=O)c2ccc(N3CCCC3=O)cc2)CC1 | i
CCOC(=O)NC1(C(F)(F)F)NC(=O)N(C2CCCCC2)C1=O (configuration not stated) | 1.7
O=C1CC(N2CCOCC2)C(=O)N1c1ccccc1Cl (configuration not stated) | i
CCCC1CC(C)(C(=O)CSc2n[nH]c(-c3ccccc3)n2)OC1=O (configuration not stated) | 0.4
Cc1cc2nc(SCCN3CCCC3)[nH]c2cc1C | 0.4
O=c1cc(-c2ccccc2)nc2nc(SCc3ccccc3)[nH]n12 | 0.6
COC(=O)Nc1ncc(CN2CCCCC2)s1 | i
O=C(c1ccc2snnc2c1)N1CCN(c2ccccc2)CC1 | i
O=C1NCCN1C(=O)C12CC3CC(CC(C3)C1)C2 | 2.0
Nc1nc(CN2CCN(c3ccccc3)CC2)nc(N2CCCc3ccccc32)n1 | i
CC(=O)c1c(C)[nH]c(C(=O)CSc2nc3ccccc3n2C)c1C | 0.5
CCN(CC)CCCn1c(C)cc2c(c1=O)C(c1ccccc1)C(C#N)=C(N)O2 (configuration not stated) | 2.3
COc1cccc(NC(=O)CSc2nnc(-c3cccc(OC(C)C)c3)n2N)c1 | i
Cc1ccc(CNC(=O)CN2C(=O)C3(OCCCO3)c3ccccc32)cc1 | i
CN(CC(=O)Nc1ccc(F)c(F)c1)S(=O)(=O)c1cccc2nsnc12 | 5.3
O=C(NCc1ccco1)c1ccc(N2CCCC2=O)cc1 | 1.7
O=C(CCl)c1ccc(Cc2ncc(C(F)(F)F)cc2Cl)s1 | 1.9
COc1ccc(-c2nc(SCC(=O)Nc3cc(C)on3)n[nH]2)cc1 | i
CCOC(=O)N1CCN(C(=O)CN(C2CCCCC2)S(C)(=O)=O)CC1 | 0.5
C=CCn1c(SCc2nc3ccccc3[nH]2)nnc1-c1ccc(OC)cc1 | i
CC(C)OCC(O)CS(=O)(=O)Cc1ccccc1 (configuration not stated) | i
O=C(CCn1nnc(-c2cccs2)n1)NCc1ccccc1Cl | i
CC(=O)c1c(C)oc2ccc(O)c(CN3CCOCC3)c12 | 0.8

Other structures:
SMILES | H5N1 antiviral
COc1nc(-c2ccccc2)ccc1-c1noc(COc2ccccc2)n1 | 0.0
C=CCn1c(SCC(=O)/C(C#N)=C(\C)N)nc2sc(CC)cc2c1=O | 0.5
O=C(NCC1CCCO1)C1CCC(=O)N1Cc1ccccc1Cl (configuration not stated) | i
CC(=O)NCC(=O)OCC(=O)c1ccc(C)c(C)c1 | i
CCO/C=C1/C(=O)N(CC)c2ccccc21 | i
CC(C)N(c1ccccc1)c1ccc(NC(=O)C2CCCO2)cc1 (configuration not stated) | i
COc1ccc(OC)c(S(=O)(=O)N2CCC(C(=O)Nc3ccc(C)c(C)c3)CC2)c1 | i
CCOc1ccc(NC(=S)NC(=O)/C=C/c2ccc(OC)c(OC)c2)c([N+](=O)[O-])c1 | 0.3
CCOC(=O)N1CCN(CC(O)COC(CC)c2ccccc2)CC1 (configuration not stated) | i
Cc1ccc(S(=O)(=O)Nc2cc(C(=O)NCCN3CCCC3)ccc2N2CCCCC2)cc1 | i
COc1ccccc1N1CSC2=C(C#N)C(c3ccc(SC)cc3)CC(=O)N2C1 (configuration not stated) | 0.6
C=CCNC(=O)c1ccc2c(c1)nnn2C | 0.5
O=C1c2cccc3c(N4CCCCC4)ccc(c23)C(=O)N1c1ccccn1 | 3.5
CCCc1cc(C(=O)Nc2cc(Br)ccc2O)no1 | i
CCOc1ccccc1N1CCN(C(=O)c2c(C)noc2C)CC1 | 0.2
COC(=O)Sc1nc(N2CCOCC2)c2c(c1C#N)CC(C)(C)OC2 | 3.2
Cn1c(=O)c2cn(-c3ccccc3)cc2n(C)c1=O | 4.2
CCOC(=O)c1c(-c2ccc(C)o2)csc1NC(=O)CN(C)CC(=O)Nc1ccc(C)cc1 | 1.3
CN(C)C(=O)CN(C)S(=O)(=O)c1ccc(Cl)cc1 | i
CCn1c(C)c(C(C)=O)c(N2CCCCC2)nc1=S | 0.5
O=C(CCCC(=O)OCC(=O)c1cccs1)Nc1ccc(Oc2ccccc2)cc1 | i
NCC(O)COCCC12CC3CC(CC(C3)C1)C2 (configuration not stated) | i
CN(C)c1ccc(/C(=N\O)C(F)(F)F)cc1 | i
Cn1ccnc1SCCC#N | 0.1
CCC(=O)N1CCc2cc(S(=O)(=O)NC(C(=O)NCc3ccccc3)C(C)C)ccc21 (configuration not stated) | i

Next section
SMILES | H5N1 antiviral
COc1ccccc1NC(=O)CC1COc2ccccc2O1 (configuration not stated) | i
CCN(CCO)C(=O)C12CCC(C)(C(=O)C1)C2(C)C (configuration not stated) | 0.6
CC(=O)Nc1nc(C)nc(C)c1C(C)=O | 0.3
CCCCCN(C(=O)NC(=O)Nn1cnnc1)S(C)(=O)=O | i
N#Cc1c(=O)c2nc(NCc3ccccc3)ncc2n2ccccc12 | 2.6
COC(=O)c1ccc(N)cc1O | 0.1
Cc1ccccc1-c1ccc(=O)n(CC(=O)Nc2ccc(N3CCOCC3)cc2)n1 | i

Reformatted as tab-separated lines: part of the list above
smiles	H5N1 antiviral
COC(=O)c1ccc(N)cc1O	0.1
Cc1ccccc1-c1ccc(=O)n(CC(=O)Nc2ccc(N3CCOCC3)cc2)n1	i
N#Cc1c(=O)c2nc(NCc3ccccc3)ncc2n2ccccc12	2.6
COc1ccccc1NC(=O)CC1COc2ccccc2O1 (configuration not stated)	i
CC(=O)Nc1nc(C)nc(C)c1C(C)=O	0.3
CCCCCN(C(=O)NC(=O)Nn1cnnc1)S(C)(=O)=O	i
CCN(CCO)C(=O)C12CCC(C)(C(=O)C1)C2(C)C (configuration not stated)	0.6

This is a subset (hit frequency here may not be typical).
